Rango-impB inh: inhibitors of Rango-importin beta complex formation. Rango CFP/YFP FRET sensor + importin beta, 45 min. Potency, µM (doses to about 92.2 µM), for the others: top-dose inhibition of complex formation. 0.031% of 340,000 active. AID 540263; active = rising FRET ratio curve, often small or poorly fitted; inconclusive = mostly compound fluorescence or quenching in the first reads; inactive = flat curves in all reads;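 note: potency is the fitted concentration of half-maximal effect; 0% = DMSO wells and 100% = buffer wells lacking importin beta; nearly all actives have a fitted effect of over 15% in size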
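FRET biosensor Rango (snurportin 1 IBB between N-terminal EYFP and C-terminal Cerulean), 50 nM in PBS/1 mM DTT/0.02% Tween-20/0.1% BSA, preincubated 5 min RT with compound; 0.125 microM importin beta added, 45 min RT, CFP/YFP FRET ratio read.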
Rango release inh: inhibition of RanGTP-driven Rango-importin beta dissociation; O95149+P62826; Biochemical FRET Rango-importin beta, RanGTP-induced dissociation; Potency, µM (top dose mostly 46.1 µM), for inactives: at the top dose activity change, negative = inhibition; 0.071% of 340,000 active; AID 540253; active means falling FRET ratio curve, often poorly fitted, with flat reads before Ran was added; inconclusive means other falling curves, or compound fluorescence or quenching; inactive means flat or rising ratio curve;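 note: potency is the fitted concentration of half-maximal effect; % of control where 0% means no effect; nearly all actives have a fitted effect of over 45% in size; -100% = wells without RanGTP and RCC1; the record marks most hits as doubtful in a second field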
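Quantitative HTS using a FRET biosensor: 0.1 uM Rango, 0.25 uM importin beta, 0.6 uM Ran, 2 mM GTP, 0.2 uM RCC1 final, PBS with DTT, Tween-20 and BSA. Post-read taken 45 min after Ran addition.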
GLA inh pH 4.5: alpha-galactosidase A (human) inhibition, pH 4.5 | P06280 | purified enzyme, 4-MU-alpha-Gal fluorescence, pH 4.5 | activity change, negative = inhibition, % at 105 µM | 230,000 tested, under 10 active | AID 1467; inconclusive = small, poorly fitted or top-dose-only inhibition, or a rising curve; inactive = flat fitted curve, though single readings scatter; no compound was filed as active;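 note: 0% = full activity with enzyme and -100% = basal without enzyme; dose as in the result columns while the protocol names 77 µM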
Target sequence (P06280 whole entry, looked up): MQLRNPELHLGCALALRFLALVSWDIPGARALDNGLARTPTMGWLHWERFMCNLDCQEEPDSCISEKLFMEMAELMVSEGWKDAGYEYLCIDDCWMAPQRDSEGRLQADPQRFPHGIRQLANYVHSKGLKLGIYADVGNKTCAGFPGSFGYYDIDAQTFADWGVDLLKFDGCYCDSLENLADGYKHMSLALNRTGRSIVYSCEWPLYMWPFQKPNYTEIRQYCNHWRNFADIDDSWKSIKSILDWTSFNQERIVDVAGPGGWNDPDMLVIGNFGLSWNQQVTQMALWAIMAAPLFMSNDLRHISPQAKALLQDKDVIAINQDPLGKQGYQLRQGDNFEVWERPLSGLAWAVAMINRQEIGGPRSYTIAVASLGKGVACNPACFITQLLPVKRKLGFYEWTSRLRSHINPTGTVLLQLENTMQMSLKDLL
miR-21 FLuc: raises the signal of a miR-21 reporter; HeLa miR-21 FLuc reporter, luciferase, 48 h; Potency, µM (highest dose often 38.3 µM), for the others: at the top dose reporter change, positive = more light; 340,000 tested, under 10 active; active = well fitted rising curve with a large enough effect; inconclusive = small, poorly fitted or top-dose-only effect; inactive = no such curve, though single readings can be large or run the other way;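 note: % of control where 0% means no effect; miR-21 action dims this reporter so a rising signal means less miR-21 action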
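Using DMEM plus 10% FBS, HeLa miR-21-FLuc cells are incubated with test compounds (final up to about 40uM) for 48 hours; firefly luciferase signal is then imaged following reagent-mediated lysis.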
* = called active by the depositor; ? = inconclusive; nt = not tested or not shown; & = joins results of further samples. An excerpt (hit frequency here may not be typical).

Rango-impB inh,miR-21 FLuc,Rango release inh,GLA inh pH 4.5,structure
-1.9%,?,-18%,-5,O=C(N/N=C/c1ccc([N+](=O)[O-])o1)c1cccc(S(=O)(=O)N2CCOCC2)c1
nt,-5%,nt,2,Cc1cccc(NC(=O)C2CC(=O)NC(Nc3nc4ccccc4s3)=N2)c1 (centres undefined)
-3.8%,-6%,5%,2,COCCNC(=O)CSc1nc2ccccc2c(=O)n1CC1CCCO1 (centres undefined)
6.4%,-1%,24%,-4,O=C(COC(=O)C1(c2ccc(F)cc2)CCCC1)N1CCN(C(=O)c2ccco2)CC1
3.4%,-39%,-16%,0,Cc1ccccc1CSc1nnc(-c2ccccn2)n1C
-0.4%,nt,25%,nt,COc1ccc(-c2nnn(CC(=O)NC(=O)NC3CCCCC3)n2)cc1OC
-2.1%,-6%,-7%,9,NC(=O)c1ccc(NC(=O)COc2ccc([N+](=O)[O-])cc2Cl)cc1
1.2%,nt,-3%,nt,O=C(Nc1ccccc1)C1CCN(S(=O)(=O)c2ccc3c(c2)OCCO3)CC1
1.1%,-11%,4%,nt,Cc1ccc(CNC(=O)Cn2cccc2)cc1
-1.1%,-21%,-5%,7,COc1ccccc1C(=O)Nc1nnc(-c2ccc(Cl)cc2)o1
1.0%,-3%,-14%,-4,O=[N+]([O-])c1ccccc1S(=O)(=O)N1CCN(Cc2cc3c(cc2O)OCO3)CC1
-2.9%,1%,-4%,-15,O=C(COC(=O)c1ccccc1F)Nc1cc(S(=O)(=O)N2CCOCC2)ccc1N1CCCC1
-0.4%,-1%,?,8,COc1cc(C(=O)Nc2nc3ccc4nc(C)sc4c3s2)cc(OC)c1OC
-0.5%,9%,5%,?,CCN(CC)CCn1c2ccc(F)cc2c2nc(C)sc21
3.7%,nt,17%,nt,CCC(c1ccccc1)C(CC)c1cc(O)c(O)c(O)c1 (centres undefined)
-1.5%,-49%,-6%,0,Cc1sc(NC(=O)C2CCCCC2)c(C#N)c1-c1ccccc1
?,-35%,?,nt,COC(=O)C(=O)C/C(=N/Nc1ncnc2ccccc12)c1ccc(Cl)cc1
-1.1%,nt,-5%,nt,C#CCOCCOCCOCCNc1nc(N2CCN(C(=O)CCCCCCCCCCNC(=O)Cn3cc(CCCCCN)nn3)CC2)nc(N2CCN(C(=O)CCCCCCCCCCNC(=O)[C@@H](CCC(=O)O)n3cc(CCCCCN)nn3)CC2)n1
-3.2%,4%,-3%,-4,C=CCCCCCCCCc1nc(SCC(C)=O)n[nH]1
-4.3%,-1%,-7%,-7,CCN1C(=O)CC(N2CCC(Nc3ccc(OC)cc3)CC2)C1=O (centres undefined)
4.3%,-12%,-19%,0,Cc1ccc(C(=O)CNc2cccc([N+](=O)[O-])c2)cc1
?,nt,7%,nt,CC(C)CN(C(=O)COC(=O)CCCc1nc2ccccc2s1)c1c(N)n(Cc2ccccc2)c(=O)[nH]c1=O
?,-6%,-11%,-7,Cc1nc(-c2ccc(S(=O)(=O)N3CCN(C(c4ccccc4)c4ccccc4)CC3)s2)cs1
-1.1%,0%,6%,nt,CC(C)(C)N(NS(=O)(=O)c1ccc(F)cc1)c1ccccc1
-7.6%,-2%,13%,3,Cc1ccc(/C=N/NC(=O)c2cccc(S(=O)(=O)N3CCOCC3)c2)o1

3 entries from above, ordered by molecular weight, low to high:
Rango-impB inh,miR-21 FLuc,Rango release inh,GLA inh pH 4.5,structure
-1.9%,?,-18%,-5,O=C(N/N=C/c1ccc([N+](=O)[O-])o1)c1cccc(S(=O)(=O)N2CCOCC2)c1
6.4%,-1%,24%,-4,O=C(COC(=O)C1(c2ccc(F)cc2)CCCC1)N1CCN(C(=O)c2ccco2)CC1
?,nt,7%,nt,CC(C)CN(C(=O)COC(=O)CCCc1nc2ccccc2s1)c1c(N)n(Cc2ccccc2)c(=O)[nH]c1=O

Additional results.
Rango-impB inh,miR-21 FLuc,Rango release inh,GLA inh pH 4.5,structure
0.2%,-9%,-16%,2,CC(C)Cc1cc(C(=O)Nc2sc3c(c2C#N)CCC3)no1
-0.1%,nt,16%,nt,COc1cc(C(=O)NCC(=O)N2CCN(S(=O)(=O)c3ccccc3C(F)(F)F)CC2)cc(OC)c1OC
-1.2%,1%,16%,-3,O=C(c1ccco1)N1CCN(C(=O)C(Cc2ccccc2)NS(=O)(=O)c2cccs2)CC1 (centres undefined)
-0.7%,-17%,4%,nt,O=C(Cc1ccccc1F)NC1CCSc2ccccc21 (centres undefined)
3.5%,-11%,1%,-3,COc1cc([N+](=O)[O-])ccc1NC(=O)NCc1ccco1
12%,-3%,16%,nt,COc1ccc(/C=N\NC(=O)CCc2c(C)n[nH]c2C)c(OC)c1OC
2.3%,-38%,1%,nt,O=C(Nc1ccccc1Cl)C(=O)c1cn(CC(=O)N2CCOCC2)c2ccccc12
-0.5%,8%,11%,-13,COC(=O)c1cccc(NC(=O)NC2CCCN2S(=O)(=O)c2ccc(Cl)cc2)c1 (centres undefined)
-0.6%,3%,20%,-3,CCCC(=O)Nc1ccccc1NC(=O)c1cc(OC)c(OC)c(OC)c1
5.7%,-11%,-9%,nt,CCn1c(=O)c2cc(C(=O)N(C)CC(OC)OC)sc2c2ccccc21
0.9%,-8%,-15%,5,CCOC(=O)c1nn(-c2ccccc2F)c(C)c1C(C)=O
6.3%,-1%,3%,-2,CC1(C)CC(NC(=O)c2ccccc2Cl)CC(C)(C)N1
0.1%,-10%,14%,-9,COc1cc2c3c(c1)C1(C(=O)N3C(C)(C)C=C2C)C(C#N)=C(N)Oc2cc(C)oc(=O)c21 (centres undefined)
1.5%,-27%,23%,-5,Nc1ccccc1SCc1csc(-c2ccc(Cl)cc2)n1
1.1%,-5%,3%,6,CC(C)c1nccn1CCC(=O)O
2.6%,0%,15%,-13,O=C1c2ccccc2C(=O)N1c1ncn[nH]1
1.7%,1%,-5%,2,COc1ccc(OC)c(NC(=O)C2CC(=O)N(c3ccccc3)C2)c1 (centres undefined)
-2.4%,nt,-5%,nt,CSc1ccc(S(=O)(=O)NCC(=O)OCC(=O)N(C)Cc2ccccc2)cc1[N+](=O)[O-]
-5.9%,-3%,0%,-3,Cc1cc(Nc2cccc(Cl)n2)n(-c2ccccc2)n1
-1.5%,1%,5%,nt,O=C(NCc1ccccc1)C(c1ccccc1)N(C(=O)c1csnn1)C1CCCC1 (centres undefined)
4.0%,6%,24%,11,CCCOC(=O)c1c(NC(=O)C2C3C=CC(C3)C2C(=O)O)sc2c1CCC(C)C2 (centres undefined)
-0.4%,1%,15%,-5,COc1ccccc1NC(=O)CSc1nnc(COc2ccc(Cl)cc2)n1Cc1ccco1
?,2%,-8%,-11,C=C(C)C(=O)Nc1cccc(C2=NOC3(C2)C[C@H](C(N)=O)N(C(=O)CC#N)C3)c1 (some centres undefined)
-0.7%,-11%,-2%,nt,CCS(=O)(=O)C1=NN2C(=N)/C(=C\c3ccc(OS(=O)(=O)c4ccccc4)cc3)C(=O)N=C2S1
?,0%,-29%,6&-14,CC1(OC(=O)CCc2ccccc2)C(=O)C=C2C=C(c3ccc(C#N)cc3)N(CC3CC3)C=C2C1=O (centres undefined)

Rewritten field by field: entries from further up
> CC(C)Cc1cc(C(=O)Nc2sc3c(c2C#N)CCC3)no1
  Rango-impB inh = 0.2%
  miR-21 FLuc = -9%
  Rango release inh = -16%
  GLA inh pH 4.5 = 2

> COc1cc(C(=O)NCC(=O)N2CCN(S(=O)(=O)c3ccccc3C(F)(F)F)CC2)cc(OC)c1OC
  Rango-impB inh = -0.1%
  miR-21 FLuc = nt
  Rango release inh = 16%
  GLA inh pH 4.5 = nt

> O=C(c1ccco1)N1CCN(C(=O)C(Cc2ccccc2)NS(=O)(=O)c2cccs2)CC1 (centres undefined)
  Rango-impB inh = -1.2%
  miR-21 FLuc = 1%
  Rango release inh = 16%
  GLA inh pH 4.5 = -3

> O=C(Cc1ccccc1F)NC1CCSc2ccccc21 (centres undefined)
  Rango-impB inh = -0.7%
  miR-21 FLuc = -17%
  Rango release inh = 4%
  GLA inh pH 4.5 = nt

(listing goes on)
Rango-impB inh,miR-21 FLuc,Rango release inh,GLA inh pH 4.5,structure
?,-17%,-27%,7,C/C(=N\NC(=S)NCCc1ccccc1)c1cccs1
1.5%,-2%,-4%,-6,Cc1cccc(NC(=S)N(CCN2CCOCC2)Cc2cc3cc4c(cc3[nH]c2=O)OCO4)c1
-1.9%,nt,-5%,nt,CN(C)c1ccc2cc(S(=O)(=O)O)cc(O)c2c1
-3.5%,-82%,7%,-1,COc1ccc(C(=O)Cc2ccc(F)cc2)c(OC)c1
-3.3%,-1%,-19%,-2,Cc1nn(CC(=O)Nc2ccc(C(=O)N3CCCCC3)cc2)c(=O)c2ccccc12
3.1%,11%,12%,nt,Cc1cccc(-n2ncc3c2CCCC3NC(=O)CCN2CCCCO2)c1C (centres undefined)
nt,-1%,nt,-1,COc1ccc(-n2nnc3c(SCC(=O)Nc4ccc5c(c4)OCCO5)ncnc32)cc1
-1.5%,1%,-9%,nt,CCN1CCN(C(=O)c2c(-c3c(Cl)cccc3Cl)noc2C)CC1
6.6%,nt,-1%,nt,C[C@H](CO)N1C[C@H](C)[C@@H](CN(C)Cc2ccc(-c3ccccc3)cc2)Oc2c(NS(=O)(=O)c3cn(C)cn3)cccc2C1=O
nt,?,nt,-3,Clc1ccc(-c2c[n+](Cc3ccc(Cl)c(Cl)c3)c3n2CCC3)cc1
0.3%,-6%,1%,20,COc1ccc(-c2cc(-c3cccs3)nc(OC)c2C#N)cc1OC
5.5%,-2%,11%,-2,CCCOc1ccc(N2C(=O)CC(NCc3cccnc3)C2=O)cc1 (centres undefined)
-0.4%,0%,6%,nt,COc1ccc(C(=O)NC2CCN(CC(=O)NC3CCCCC3)CC2)cc1
0.0%,-15%,-5%,-4,Cc1ccc2nc(N/C(N)=N/S(=O)(=O)c3ccc([N+](=O)[O-])cc3)nc(C)c2c1
5.8%,-1%,-14%,-1,O=C(NCC1CC1)NC(=O)c1c(F)cccc1Cl
2.0%,nt,5%,nt,COCCCN(C(=O)C(C)Oc1ccc(Br)cc1)c1c(N)n(Cc2ccccc2)c(=O)[nH]c1=O (centres undefined)
-3.1%,-10%,-6%,3,O=C(CSc1c[nH]c2ccccc12)N1CCOCC1
-4.8%,-2%,19%,nt,CCCOc1ccc(-c2c(C(=O)N/N=C(\C)c3ccco3)nnn2-c2nonc2N)cc1
1.5%,-49%,3%,0,Nc1nc(COc2ccc(Cl)cc2)cs1
3.2%,-28%,-17%,?,FC(F)(F)c1cc(-c2ccco2)nc(NCCc2ccccc2)n1
-4.7%,-7%,-5%,-10,CN(Cc1nc(CCc2ccccc2)no1)Cc1cccs1
0.6%,-13%,-12%,-6,O=C(Oc1ccc2ccc(OC(=O)N3CCCCCC3)cc2c1)N1CCCCCC1
3.4%,2%,-3%,nt,O=C(NCc1ccccc1)C1CCCN(S(=O)(=O)c2ccc(-n3cnnn3)cc2)C1 (centres undefined)
?,0%,?,5,CCOCCCNC(=O)c1c(N)n(-c2ccc(S(N)(=O)=O)cc2)c2nc3ccccc3nc12
nt,-12%,nt,-4,Cc1ccc(-c2nc3c(c(=O)[nH]c(=O)n3Cc3ccccc3)n2C)s1
1.7%,-3%,2%,2,CC(C)CC(C(=O)NC(C)(C)C)N(CC1CCCO1)C(=O)c1snc(C(N)=O)c1N (centres undefined)
4.4%,-6%,-13%,-5,N#C/C(C(=O)NCc1ccccc1)=C1\SC(CCO)C(=O)N1c1ccccc1 (centres undefined)
-1.4%,18%,1%,6,CCn1c(CSCc2ccc(F)cc2)nnc1SCC(=O)N1CCN(c2ccccc2)CC1
9.8%,-3%,3%,-2,CC(CN1CCOCC1)OC(=O)COc1ccc(F)cc1 (centres undefined)
-4.9%,-4%,27%,2,O=C(O)CCCNS(=O)(=O)Cc1ccccc1
2.1%,0%,-7%,5,COc1ccc(N(C(=O)CNC(=O)c2cccs2)C(C(=O)NC2CCCC2)c2cccnc2)cc1 (centres undefined)
-1.6%,1%,-6%,-5,O=C(COC(=O)c1cccc(O)c1)NCc1ccc2c(c1)OCO2
1.5%,-11%,4%,nt,O=C(NCc1ccccn1)Nc1cccc([N+](=O)[O-])c1
2.4%,-12%,34%,nt,O=C(O)CN1C(=O)/C(=C\c2ccccc2OCc2ccc(Cl)cc2)SC1=S

High-throughput results: PubChem BioAssay, National Center for Advancing Translational Sciences (NCATS)
